Source: PubChem (several laboratories)
PrP 5UTR inh – inhibition of PrP 5' UTR reporter expression; cell-based PrP 5' UTR mRNA reporter, plate reader; inhibition, % (concentration not given with the values); 340,000 tested, 0.35% active;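 active means every replicate at 50% or more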;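 further: 0 = median of the neutral control wells; tested in H4 reporter cells; numbers are from one replicate; inactives centre near -14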
Mtb hypoxia inh – Mtb hypoxia fluorescent reporter inhibition; M. tuberculosis hypoxia-regulated fluorescent reporter, fluorescence; fluorescence inhibition, % (no concentration beside the values); 300,000 tested, 0.1% active; AID 1159583;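 active means 35 to 45% if threefold the growth effect, above 45% if 1.5-fold the growth effect; inactive means the rest, general growth blockers included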;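 further: wells of about 50 µL received 100 nL stock; 0% = vehicle wells and 100% = reference inhibitor wells; whole bacteria with a GFP reporter of the hypoxia response; strong numbers were not always called active; many hits fall short of the cut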
Sa ugtP lethal – growth inhibition of S. aureus ugtP deletion strain | S. aureus RN4220 ugtP deletion, OD600 growth, 16 h; some inactives read as strong as hits | growth inhibition, % (concentration not given with the values) | 330,000 tested, 0.54% active;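 active means z-score under -3 and OD600 up to 0.15 on both plates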;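 further: plate controls were untreated wells for no effect and antibiotic for full effect; wells of about 80 µL received 100 nL stock; the first replicate is given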
Sa RN4220 lethal – kills Staphylococcus aureus RN4220 | S. aureus RN4220 growth, OD600, 16 h | inhibition, % (no concentration beside the values) | 330,000 tested, 0.33% active | AID 1259311;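 active means z-score of -3 or lower and OD600 up to 0.18 on both plates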;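 further: plate controls were untreated cells for no effect and reference antibiotic for full effect; stock transfer was 100 nL into about 80 µL; one replicate is shown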
Autofluor counter – compound fluorescence in toxin protease inhibitor counterscreen. compound autofluorescence counterscreen, microsphere flow cytometry; hits give high values. fluorescence intensity (concentration not given with the values). AID 624483. 360,000 tested, 3.1% active;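 active means at least 3 SD above the mean of all compounds, about 16000 in these data; inconclusive means too few beads counted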;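 further: 100 nL of 1 mM stock went into each well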
BJeLR lethal – kills HRASV12-expressing BJeLR cells | 300,000 tested, 0.17% active | inhibition, % (concentration not given with the values) | BJeLR (HRASV12) viability, CellTiter-Glo ATP luminescence, 48 h; reference of the scale not given here | AID 1554;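 active means replicate mean above 50%; inconclusive means above 50% but judged a plate artefact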;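 further: 50 nL library stock added to about 25 µL; numbers are from one replicate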
Mtb hypoxia inh growth – also measured in Mtb hypoxia inh; calls as there; growth inhibition, %; measured here: M. tuberculosis growth (absorbance);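 0% = vehicle and 100% = reference antibiotic; read after six days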
* marks the source's active call; other numbers are inactive results; ? = inconclusive; nt = no result given.

SMILES | PrP 5UTR inh | Mtb hypoxia inh | Mtb hypoxia inh growth | Sa ugtP lethal | Sa RN4220 lethal | Autofluor counter | BJeLR lethal
c1cc(CNC2=NCCCCC2)ccn1 | -34 | -11 | 0 | -2 | 1.1 | 4359 | -10
Cc1ccc(C)c(OCCC(=O)OCC(=O)NNC(=O)c2ccccc2)c1 | 4 | 5 | 3 | -1 | 0.4 | nt | nt
O=C(COC(=O)c1cc(Br)ccc1O)Nc1cccnc1Cl | -6 | 7 | 8 | 4 | 3.5 | 5870 | -4
CN1CCN(NC(=O)c2cc(S(=O)(=O)Nc3ccc(Cl)cc3)ccc2Cl)CC1 | -10 | 15 | 8 | -2 | 1.8 | 3888 | -19
CCSc1nc2c(sc3ccccc32)c(=O)n1C(C)C | -9 | 5 | 1 | 14 | 0.1 | 23016* | 4
CN(Cc1cn(C)nc1-c1cccc(Cl)c1)C1CCOCC1 | -22 | -1 | 1 | 6 | 5.2 | 2138 | -1
Fc1ccc(Nc2nc(NN=Cc3ccco3)nc(N3CCCCC3)n2)cc1 | nt | 0 | 18 | 2 | 7.3 | nt | nt
O=C(c1cc(-c2ccccc2)on1)N1CCN(C(=O)c2ccco2)CC1 | -22 | 13 | 7 | 3 | 3.1 | 10083 | -1
CC1(C)CC(=O)C2=C(C1)N(Cc1ccccc1)C(=O)C2(O)C(F)(F)F (configuration not stated) | -20 | 1 | -1 | 3 | 8.4 | 3135 | -6
CCCNC(=O)c1cc2c3ccccc3n(C)c2s1 | -15 | nt | nt | -15 | 11 | 9357 | 4
O=C(NN=Cc1cc(Cl)c(O)c(Cl)c1)c1cc2c(ccc3ccccc32)o1 | nt | 7 | 1 | -4 | 9.3 | nt | nt
O=C(Nc1ccccn1)c1ccc(Cl)s1 | -52 | 0 | 10 | 7 | 2.1 | 5426 | -2
Cn1c(-c2ccc3c(c2)OCO3)cnc1NCc1ccccc1Cl | -58 | -17 | 5 | -11 | -2.8 | 4272 | -2
CCOc1cccc(NC(=O)C2CC(=O)N(C)C(=Nc3ccccc3)S2)c1 (configuration not stated) | -10 | 6 | -1 | 1 | -5.6 | 7148 | 1
Cc1ccc(S(=O)(=O)N2CCCC2)s1 | -16 | -1 | -4 | 1 | -1.5 | 5853 | -12
COc1ccc(C(=O)Nc2ccc(NC(C)=O)cc2)cc1S(=O)(=O)N1CCCCC1C (configuration not stated) | -25 | -3 | -3 | 6 | 3.2 | ? | nt
N#CCSc1nn(-c2ccc(F)cc2)c(=S)s1 | -42 | -2 | 6 | -2 | -0.5 | 4301 | -10
Cc1cccc(C)c1NC(=O)C1CCCN1C(=O)NCc1ccccc1 (configuration not stated) | -26 | 9 | 2 | 4 | 0.7 | 3603 | -10
COC1(c2ccccc2)NC(=S)NN=C1c1ccccc1 (configuration not stated) | -15 | nt | nt | 4 | 1.7 | 2405 | -9
CCOC(=O)CSC1=C(C#N)C(c2ccc(C)cc2)C(C(=O)OC)C(=O)N1 (configuration not stated) | -8 | nt | nt | 4 | 0.7 | 4743 | 3
NC(N)=Nc1nc2ccc(Cl)cc2c(=O)[nH]1 | -7 | 4 | 2 | 10 | 2.8 | 3452 | -7
COc1ccc(C2C=CCN(C(=O)C3CC3)CC(=O)N2Cc2ccc(F)cc2)cc1 (configuration not stated) | nt | 6 | 9 | -9 | 4.2 | nt | nt
S=C(Nc1cccnc1)NC1CCCC1 | -6 | 5 | 7 | -3 | 0.9 | 2429 | 3
CC(=O)Oc1ccc(/C=C/c2nc3ccccc3c(=O)o2)cc1 | 21 | 8 | 2 | -1 | 0.3 | ? | -9
COc1ccc(-c2nc(CSCC(=O)NC3CCCC3)c(C)o2)cc1OC | -4 | 2 | -4 | 2 | 1.2 | 4174 | 8
COc1ccc(NC(=O)CSc2nc(C)cc(C)n2)c([N+](=O)[O-])c1 | 11 | 18 | -2 | 2 | 5.5 | 2449 | 2
Cc1cccc(C(=O)NNC(=O)c2n[nH]c(=O)c3ccccc23)c1C | -13 | -4 | -7 | 4 | 2.7 | 4006 | nt
COC(=O)C1=C(C)N(CCc2ccccc2)C(=O)C1(NS(=O)(=O)c1ccc(NC(C)=O)cc1)C(F)(F)F (configuration not stated) | -4 | 2 | 4 | 5 | 6.7 | 11094 | 5
O=C1C2C3C=CC(CC3)C2C(=O)N1/N=C/c1ccccc1O (configuration not stated) | -34 | nt | nt | nt | nt | 9093 | 10
Cc1cccc(-c2noc(C3CCCCC3)n2)c1 | -39 | 9 | 3 | 41 | 14 | 16111 | 3
C=CCCCOc1ccc(C(=O)O)cc1 | -18 | 12 | 2 | 2 | 3.7 | 21372* | nt
O=C1CSc2ccc(C(=O)Nc3cccc(S(=O)(=O)Nc4ccc(Br)cc4)c3)cc2N1 | 1 | -6 | 2 | 5 | 7.7 | 2532 | 26
COc1ccccc1CNC(=O)c1ccncc1 | -10 | -6 | 7 | 3 | 0.9 | 3850 | -6
COc1ccc(COC(=O)C2CC(=O)N(Cc3ccccc3)C2)cc1 (configuration not stated) | 6 | 1 | -1 | 2 | 1.8 | nt | nt
Cc1cccc(C)c1NC(=O)Cn1nnc(-c2ccc(CN3CCC(C)CC3)cc2)n1 | -21 | 8 | 9 | 5 | 0.2 | 4700 | -3
CC(C)CN(C(=O)CN1CCN(c2ccc([N+](=O)[O-])cc2)CC1)c1c(N)n(CC(C)C)c(=O)[nH]c1=O | -9 | 1 | 5 | 2 | 1.1 | 4640 | 3
Cc1cc(C(=O)OCC(=O)NC2CCCC2)c2ccccc2n1 | -1 | 2 | -4 | 0 | 2.4 | 6138 | nt
CC1CN(C(C)CO)C(=O)c2cc(NC(=O)Cc3cn(C)c4ccccc34)ccc2OC1CN(C)S(=O)(=O)c1ccc(F)cc1 (configuration not stated) | nt | 6 | 4 | 9 | 6.0 | nt | nt
Cn1c(=O)n(CCN2CCOCC2)c(=O)c2c1nc1n2CCN1c1ccc(Oc2ccccc2)cc1 | -14 | 12 | 15 | 2 | 5.2 | 9366 | nt
CCOC(=O)C1C2COc3ccc(Cl)cc3C2N2C(=O)C(C)NC(=O)[C@@]12C (some centres not stated) | nt | -2 | 12 | -12 | 0.2 | nt | nt
O=C(O)CC/C(=C\c1ccccc1[N+](=O)[O-])c1nc2ccccc2s1 | -11 | 8 | 9 | 9 | -7.3 | 4285 | -5
COc1ccccc1NC(=O)CSc1nc2ccccc2c(=O)n1C | -3 | 1 | 1 | 1 | 7.0 | 3669 | 0
COc1cc(C(C)=NNC(=O)c2ccc(CSc3nncn3C)cc2)cc(OC)c1OC | nt | 0 | 4 | 3 | 2.1 | nt | nt
CC(=O)N1CCN(C(=O)c2ccc(NS(=O)(=O)c3ccc(Cl)c(Cl)c3)cc2)CC1 | -3 | 2 | 15 | 1 | 7.3 | nt | nt
CC1CCCC(NC(=O)CSc2cccc[n+]2[O-])C1C (configuration not stated) | -6 | 5 | 3 | 1 | 1.6 | 5408 | nt
O=C1CCCC2=C1C1(CCCCC1)N=C(Nc1nc3ccccc3o1)N2 | -12 | 0 | 13 | -26 | -0.3 | 6192 | -13
O=C(c1cnc2ccc3ccccc3c2c1)c1cc(F)ccc1O | -24 | -1 | 13 | 1 | 18 | 5997 | -2
Cn1nccc1C(=O)Nc1cccc(S(=O)(=O)N2CCOCC2)c1 | -6 | 4 | 1 | 11 | 2.7 | 4141 | 6
CNc1nc(-c2ccccn2)nnc1-c1ccccc1 | -3 | nt | nt | 4 | 0.0 | 4939 | -1
O=[N+]([O-])c1cccnc1-n1cnc2ccccc21 | 0 | 11 | 1 | 1 | 3.9 | 4195 | 5
CCOc1ccc2nc(N3CCCC(C(=O)NCC4CCCO4)C3)sc2c1 (configuration not stated) | 1 | -2 | 7 | 5 | 3.2 | 3679 | 0
CCOC(=O)c1[nH]c(C)c(C(=O)OCc2c(C)noc2C)c1C | -23 | nt | nt | -5 | 1.1 | 2919 | -3
Cc1cc(C)n2nc(C(=O)OC(C)C(=O)c3cc(C)c(C)cc3C)nc2n1 (configuration not stated) | -20 | 8 | 8 | 1 | 1.6 | ? | 6
Fc1ccccc1CNc1ccc(Cl)cc1 | -17 | 4 | -3 | 18 | 2.7 | 9301 | -4
C/C(=N\O)c1cc(Cl)ccc1O | -9 | nt | nt | nt | nt | 4662 | 12
C=CCNC(=O)NC(=O)CSc1nnc(C(F)(F)F)n1C | -14 | -2 | -3 | -19 | -4.4 | 4264 | -2
Cc1cccc([C@H]2[C@@H]3C=CCC[C@@H]3C(=O)N2Cc2ccccc2)c1 | -20 | -4 | 5 | -2 | -0.3 | 3416 | nt
C[C@@]12C(=O)Nc3ccc(Br)cc3C(=O)N1C1c3cc(Br)ccc3OCC1C2c1ccccc1 (some centres not stated) | nt | -4 | 11 | -9 | -12 | nt | nt
Cn1c(=O)c(C(=O)NNC(=O)c2ccccc2F)c(O)c2ccccc21 | -14 | -23 | 2 | -9 | 15 | 5185 | -12
COc1ccccc1N1CCN(C(=O)CN2C(=O)c3ccccc3S2(=O)=O)CC1 | nt | 6 | 8 | 1 | 5.2 | 5142 | 7
Following part
SMILES | PrP 5UTR inh | Mtb hypoxia inh | Mtb hypoxia inh growth | Sa ugtP lethal | Sa RN4220 lethal | Autofluor counter | BJeLR lethal
CCOC(=O)C(Cc1ccc(Cl)cc1Cl)c1ccno1 (configuration not stated) | -7 | 7 | 4 | 20 | 4.8 | 4345 | 2
Cc1ccc(S(=O)(=O)N(C)CC(=O)Nc2ccc3c(c2)OCO3)cc1 | -18 | 3 | -5 | 0 | 6.2 | 3060 | 3
CCC(C)(C)C1CCC2(CC1)NC(=O)N(CC(=O)N1CCN(C(=O)c3ccco3)CC1)C2=O (configuration not stated) | -16 | 3 | 1 | 7 | 3.2 | nt | nt
O=C(Cc1cccs1)Nc1ccc(F)c(S(=O)(=O)N2CCOCC2)c1 | -1 | -4 | 7 | -1 | 0.8 | 3754 | nt
COc1ccc(NC(=O)Nc2nnc(Cc3ccccc3)s2)cc1 | -17 | -6 | 7 | -12 | -2.8 | 3785 | -1
O=C(NCC(O)c1ccccc1)c1cccs1 (configuration not stated) | -33 | 11 | 4 | -3 | 2.5 | 3529 | -4
CCOC(=O)C(=CNc1cc(C)nn1C(C)(C)C)C(=O)OCC | -4 | -2 | 10 | -9 | -4.4 | 5180 | 11
O=C(CSc1nnc(Cn2nnc(-c3ccccc3)n2)n1-c1ccccc1)Nc1ccccc1 | -10 | 11 | 6 | 4 | 6.6 | 9718 | 1
O=C(COc1ccccc1)Nc1ccccc1N1CCCCC1 | -2 | nt | nt | -9 | -3.0 | 4056 | 0
CCOC(=O)N1CCN(C(=O)COc2ccc(S(=O)(=O)Nc3ccc(OCC)cc3)cc2)CC1 | -2 | 14 | 1 | 4 | 3.9 | 17078* | 0
CCN1CCC(N2CCN(c3ccccc3OC)CC2)CC1 | -19 | 6 | -2 | 8 | 1.7 | nt | 2
Cc1cc(Cl)ccc1C(=O)C1CCCN(C(=O)c2cscn2)C1 (configuration not stated) | -9 | 4 | 6 | 7 | 10 | 4160 | -1
O=C(NNC(=O)c1ccccc1Cl)c1ccccc1Cl | -3 | 8 | 8 | 7 | 0.9 | nt | -10
CCCCC(=O)Nc1nc(C)c(-c2csc(Nc3ccc(Cl)cc3)n2)s1 | -25 | nt | nt | nt | nt | 3940 | -13
CCOc1ccc(-c2c(C)n([O-])c3c([n+]2=O)CCCCC3)cc1 | -23 | -8 | -2 | 4 | 6.1 | 3681 | -4
CNC(=S)N(C)CCc1cc2c(c(OC)c1/C=C1/C(=O)NC(=O)N(C)C1=O)OCO2 | -27 | -1 | 3 | 12 | 3.8 | 5344 | -2
C=CCn1c(C)cc(C(=O)Cn2ncc(Cl)c(Cl)c2=O)c1C | -35 | -1 | 0 | -4 | 3.7 | 7424 | 0
